Bioassay records (PubChem)
pPAFAH inh – pPAFAH enzyme inhibitors, primary screen, biochemical, fluorescence polarization, human | Platelet-activating factor acetylhydrolase (Homo sapiens), Q13093 | recombinant pPAFAH, FP-rhodamine probe fluorescence polarization | inhibition, % at 3.39 µM | actives 1.5% (n = 330,000) | AID 463082, 2010;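 active = inhibition above the mean inhibition across the screen plus 3 SD, cut at about 25% in these data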;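 note: inhibitors block binding of the rhodamine activity-based probe so polarization drops; 0% = enzyme with DMSO and 100% = wells lacking pPAFAH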
GSTO1 inh – inhibitors of recombinant GSTO1, primary screen, counter-screen for RBBP9 inhibitor project, biochemical, fluorescence polarization | inhibition, % at 5.96 µM | AID 1974, 2009 | actives 1.1% (n = 300,000) | activity-based probe fluorescence polarization | Glutathione S-transferase omega-1 (Homo sapiens), P78417;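 active = inhibition above the campaign mean inhibition plus 3 SD, cut at about 35% in these data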;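 note: 0% = GSTO1-1 with DMSO and 100% = wells lacking GSTO1-1 enzyme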
LYPLA2 inh – LYPLA2 inhibitors, primary screen, counter-screen for PME1 inhibitor project, biochemical, fluorescence polarization, FP-Rh probe ABPP | inhibition, % at 5.9 µM | recombinant LYPLA2 | Acyl-protein thioesterase 2 (Homo sapiens), O95372 | actives 0.38% (n = 320,000);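 active = inhibition above the screen-wide mean plus 3 SD, limit set per campaign, cut at about 26% in these data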;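 note: 0% = LYPLA2 with DMSO and 100% = wells lacking LYPLA2 enzyme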
Target sequence (O95372 whole entry, looked up): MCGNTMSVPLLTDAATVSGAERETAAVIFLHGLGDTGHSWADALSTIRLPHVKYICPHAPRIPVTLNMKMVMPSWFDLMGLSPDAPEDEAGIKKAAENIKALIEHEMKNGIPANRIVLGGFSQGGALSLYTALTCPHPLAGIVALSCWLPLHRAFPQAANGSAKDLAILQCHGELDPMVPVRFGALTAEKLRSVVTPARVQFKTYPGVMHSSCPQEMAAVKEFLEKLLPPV
PAD4 FP inh – human PAD4 inhibitors, primary screen, biochemical, fluorescence polarization, 1536-well format; recombinant PAD4, RCA probe fluorescence polarization; inhibition, % at 6.36 µM; AID 485272, 2010; Protein-arginine deiminase type-4 (Homo sapiens), Q9UM07; actives 0.41% (n = 330,000);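 active = percent inhibition above a cutoff equal to the mean of all tested compounds plus 3 SD, cut at about 15% in these data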;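 note: 0% = PAD4 with RCA probe and DMSO and 100% = probe without PAD4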
PREPL inh – PREPL enzyme inhibitors, primary screen, biochemical, fluorescence polarization; actives 0.68% (n = 320,000); Prolyl endopeptidase-like (Homo sapiens), Q4J6C6; inhibition, % at 5.96 µM; recombinant PREPL, fluorescence polarization activity-based probe; in the data active = inhibition above about 43%;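 note: 0% = enzyme with DMSO and 100% = wells lacking enzyme; many of its hits are not listed in these tables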
Target sequence (Q4J6C6 whole entry, looked up): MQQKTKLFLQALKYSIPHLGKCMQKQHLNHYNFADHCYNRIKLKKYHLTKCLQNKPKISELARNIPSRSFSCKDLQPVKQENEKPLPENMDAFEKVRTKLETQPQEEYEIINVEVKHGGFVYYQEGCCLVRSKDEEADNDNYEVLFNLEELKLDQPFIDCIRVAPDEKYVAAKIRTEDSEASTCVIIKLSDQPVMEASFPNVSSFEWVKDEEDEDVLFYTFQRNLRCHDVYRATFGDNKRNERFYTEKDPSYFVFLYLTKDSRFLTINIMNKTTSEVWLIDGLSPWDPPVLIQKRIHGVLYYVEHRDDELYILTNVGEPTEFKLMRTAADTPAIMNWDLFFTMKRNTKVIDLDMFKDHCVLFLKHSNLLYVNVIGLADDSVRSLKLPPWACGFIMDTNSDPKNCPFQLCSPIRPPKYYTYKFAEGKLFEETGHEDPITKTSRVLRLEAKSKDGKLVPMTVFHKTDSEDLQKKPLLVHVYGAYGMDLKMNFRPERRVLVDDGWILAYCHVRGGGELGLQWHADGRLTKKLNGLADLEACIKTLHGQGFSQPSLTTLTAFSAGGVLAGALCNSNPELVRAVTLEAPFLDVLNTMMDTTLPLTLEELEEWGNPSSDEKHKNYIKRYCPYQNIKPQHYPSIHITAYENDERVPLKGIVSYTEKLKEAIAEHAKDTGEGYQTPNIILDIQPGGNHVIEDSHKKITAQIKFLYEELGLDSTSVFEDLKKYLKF
PAFAH1B3 inh – PAFAH1B3 enzyme inhibitors, primary screen, biochemical, fluorescence polarization, human | actives 0.28% (n = 340,000) | AID 492972, 2010 | inhibition, % at 3.39 µM | recombinant PAFAH1B3, FP-rhodamine probe | Platelet-activating factor acetylhydrolase IB subunit alpha1 (Homo sapiens), Q15102;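 active = inhibition above the screen-wide average of all tested compounds plus 3 SD, cut at about 25% in these data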;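 note: 0% = enzyme with DMSO only and 100% = wells lacking PAFAH1B3 protein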
PME-1 primary – PME-1 inhibitors via competitive probe labeling, primary screen, biochemical, fluorescence polarization, FP-Rh probe, HTS; Protein phosphatase methylesterase 1 (Homo sapiens), Q9Y570; recombinant PME-1; inhibition, % at 5.9 µM; actives 0.53% (n = 320,000); AID 2130, 2009;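 active = inhibition above the campaign mean of all compounds plus 3 SD, cut at about 26% in these data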;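 note: competitive labeling of PME-1 active site by serine hydrolase directed probe; 0% = PME-1 with DMSO and 100% = wells lacking PME-1 enzyme; inhibitors block probe labeling so polarization falls and inhibition rises; many of its hits are not listed in these tables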
LYPLA1 inh – LYPLA1 inhibitors, primary screen, counter-screen for PME1 inhibitor project, biochemical, fluorescence polarization, FP-Rh probe ABPP. recombinant LYPLA1. actives 0.16% (n = 320,000). Acyl-protein thioesterase 1 (Homo sapiens), O75608. inhibition, % at 5.9 µM;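 active = inhibition above the mean of all tested compounds plus 3 SD, set per campaign, cut at about 14% in these data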;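 note: inhibitors block serine hydrolase probe labeling of LYPLA1 so polarization falls; 0% = enzyme with DMSO and 100% = wells lacking LYPLA1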
Active calls of the source: *; . = no result given. A portion of the library; count on the stated rates, not on these rows.

SMILES | pPAFAH inh | GSTO1 inh | LYPLA2 inh | PAD4 FP inh | PREPL inh | PAFAH1B3 inh | PME-1 primary | LYPLA1 inh
Cc1noc(C)c1CN1C(=O)NC(Cc2ccccc2)(Cc2ccccc2)C1=O | 9.4 | 0.3 | 3.7 | -3.1 | 1.6 | 2.8 | -4.3 | 3.8
Cc1cc(S(=O)(=O)Nc2cccc(C(=O)O)c2)c(C)c(S(=O)(=O)c2ccc(Cl)cc2)c1 | -0.1 | -29.8 | 1.8 | -2.9 | -2.8 | -0.8 | 3.7 | -1.5
Cc1ccc(S(=O)(=O)NC(Cc2ccccc2)C(=O)O)cc1C (configuration not stated) | 1.4 | 5.0 | -1.7 | -1.8 | -3.5 | 5.0 | 5.5 | -1.9
Cc1cc(Br)ccc1OCC(=O)N(Cc1nc(-c2ccccc2)no1)C(C)C | 7.3 | -0.8 | -4.1 | 0.7 | -24.2 | 9.0 | -9.1 | -4.2
COC(=O)c1sc(-c2ccc(Cl)cc2)cc1NC(=O)c1ccccc1C(=O)O | 6.9 | 34.1 | -0.2 | -0.8 | 24.6 | -0.5 | -22.9 | -3.2
COc1cccc(CC(=O)N2CCN(S(=O)(=O)c3ccc(Br)cc3)CC2)c1 | 4.2 | -1.0 | 11.7 | -1.1 | -34.7 | 4.2 | 3.7 | 0.6
CC(C)c1ccc(CCNC(=O)CCNC(=O)c2ccc(Br)cc2)cc1 | 0.8 | -3.4 | -1.5 | 2.3 | -0.1 | -2.1 | 2.9 | -1.9
COc1ccccc1CNC(=O)CCNC(=O)C1CCN(S(=O)(=O)c2ccccc2)CC1 | 5.6 | 7.6 | 1.6 | -2.8 | -2.2 | -5.2 | 6.5 | -1.8
Clc1ccc(CSc2ncnc3nc[nH]c23)cc1 | 3.1 | 2.2 | 4.7 | 3.9 | -4.9 | 3.8 | -1.7 | -0.7
CCN1C(=O)N/C(=C/c2ccc(Sc3ccc(C)cc3)o2)C1=O | -0.7 | -12.0 | -7.2 | -1.2 | -3.9 | 5.1 | -2.4 | 3.6
Cc1ccc(-c2nc(CS(=O)CC(=O)N3CCN(c4ccc(F)cc4)CC3)c(C)o2)cc1 (configuration not stated) | 4.2 | 1.2 | 4.2 | 0.8 | -27.9 | 7.1 | -6.4 | 3.9
CCCCCCCCCCCC(=O)NC(C(=O)O)C(O)c1ccccc1 (configuration not stated) | 19.8 | 1.0 | 4.5 | -5.5 | -4.8 | 3.5 | -5.1 | 3.5
O=C(O)c1cc(-c2ccc(Cl)cc2)n(-c2ccccc2)n1 | -2.1 | 2.4 | -2.9 | -3.4 | 0.2 | 6.0 | -5.9 | -0.4
CCCCCCc1ccc(OCC(=O)O)cc1OCC(=O)O | 3.9 | -0.7 | 3.0 | 1.3 | 7.4 | 1.6 | -7.2 | 2.8
CC1C(=O)Nc2ccccc2N1C(=O)c1ccc(F)cc1F (configuration not stated) | 6.3 | 52.8* | 3.4 | -0.9 | -5.6 | -0.6 | -7.3 | 2.4
CC1C=Cc2ccccc2N1C(=O)c1ccccc1 (configuration not stated) | -1.6 | -0.8 | -1.8 | 0.3 | 6.8 | 9.1 | -0.9 | -1.2
Cc1cc(O)cc(=O)n1Cc1ccco1 | 2.0 | 10.3 | 0.6 | -6.4 | 2.4 | 7.5 | 3.0 | 1.3
Cc1ccc(S(=O)(=O)c2cc(C#N)c(=O)[nH]c2N)cc1 | -0.4 | 4.5 | 3.8 | 0.9 | 4.0 | 1.4 | -5.8 | 1.0
CCN(CC)S(=O)(=O)c1cccc(NC(=O)CCSc2ccc(Cl)cc2)c1 | 1.1 | -8.1 | -51.5 | -0.1 | 6.3 | 1.9 | -34.5 | -26.6
CC1CCN(S(=O)(=O)c2ccc3c(ccn3CCC(=O)NC(C)C)c2)CC1 | 2.5 | 2.5 | 0.7 | 1.8 | 15.1 | -0.8 | -2.0 | 1.8
CN(C)S(=O)(=O)c1cccc(NC(=O)COC(=O)CCSc2ccc(Cl)cc2)c1 | 18.4 | 5.6 | 4.9 | -1.3 | 9.7 | -1.1 | 1.0 | -2.9
O=C(c1ccccc1F)N1CCN(S(=O)(=O)c2ccc(Br)cc2)CC1 | 2.5 | 7.9 | -12.1 | 2.5 | 0.1 | 7.0 | 0.4 | -5.5
CC(C)NC(=S)NC(=O)c1ccc(Cl)cc1Cl | 5.1 | -3.6 | 6.6 | -6.9 | -0.8 | 4.3 | 0.6 | 4.1
S=c1[nH]nc(C2CCCCC2)n1Cc1ccccc1 | 1.7 | 2.0 | -1.0 | 2.7 | 11.2 | -0.6 | 3.2 | 2.2
CCN(C(=O)N(CC)c1ccccc1)c1ccccc1 | 0.1 | . | 6.1 | -3.9 | 15.3 | 3.6 | -7.8 | 4.2

A different layout for some results above:
> COc1ccccc1CNC(=O)CCNC(=O)C1CCN(S(=O)(=O)c2ccccc2)CC1
  pPAFAH inh: 5.6	GSTO1 inh: 7.6	LYPLA2 inh: 1.6	PAD4 FP inh: -2.8	PREPL inh: -2.2	PAFAH1B3 inh: -5.2	PME-1 primary: 6.5	LYPLA1 inh: -1.8
> Clc1ccc(CSc2ncnc3nc[nH]c23)cc1
  pPAFAH inh: 3.1	GSTO1 inh: 2.2	LYPLA2 inh: 4.7	PAD4 FP inh: 3.9	PREPL inh: -4.9	PAFAH1B3 inh: 3.8	PME-1 primary: -1.7	LYPLA1 inh: -0.7
> CCN1C(=O)N/C(=C/c2ccc(Sc3ccc(C)cc3)o2)C1=O
  pPAFAH inh: -0.7	GSTO1 inh: -12.0	LYPLA2 inh: -7.2	PAD4 FP inh: -1.2	PREPL inh: -3.9	PAFAH1B3 inh: 5.1	PME-1 primary: -2.4	LYPLA1 inh: 3.6
> Cc1ccc(-c2nc(CS(=O)CC(=O)N3CCN(c4ccc(F)cc4)CC3)c(C)o2)cc1 (configuration not stated)
  pPAFAH inh: 4.2	GSTO1 inh: 1.2	LYPLA2 inh: 4.2	PAD4 FP inh: 0.8	PREPL inh: -27.9	PAFAH1B3 inh: 7.1	PME-1 primary: -6.4	LYPLA1 inh: 3.9

Molecules shown so far with an NH in an aromatic ring, in the order listed:
SMILES | pPAFAH inh | GSTO1 inh | LYPLA2 inh | PAD4 FP inh | PREPL inh | PAFAH1B3 inh | PME-1 primary | LYPLA1 inh
Clc1ccc(CSc2ncnc3nc[nH]c23)cc1 | 3.1 | 2.2 | 4.7 | 3.9 | -4.9 | 3.8 | -1.7 | -0.7
Cc1ccc(S(=O)(=O)c2cc(C#N)c(=O)[nH]c2N)cc1 | -0.4 | 4.5 | 3.8 | 0.9 | 4.0 | 1.4 | -5.8 | 1.0
S=c1[nH]nc(C2CCCCC2)n1Cc1ccccc1 | 1.7 | 2.0 | -1.0 | 2.7 | 11.2 | -0.6 | 3.2 | 2.2

Three compounds already listed, ordered by their value in PME-1 primary, low to high:
SMILES | PME-1 primary
CC(C)NC(=S)NC(=O)c1ccc(Cl)cc1Cl | 0.6
CN(C)S(=O)(=O)c1cccc(NC(=O)COC(=O)CCSc2ccc(Cl)cc2)c1 | 1.0
CC(C)c1ccc(CCNC(=O)CCNC(=O)c2ccc(Br)cc2)cc1 | 2.9

(more compounds)
SMILES | pPAFAH inh | GSTO1 inh | LYPLA2 inh | PAD4 FP inh | PREPL inh | PAFAH1B3 inh | PME-1 primary | LYPLA1 inh
Cc1ccc(S(=O)(=O)NC(CC(=O)O)c2ccccc2)cc1 (configuration not stated) | 2.8 | 9.0 | -3.6 | 2.6 | -2.2 | 1.6 | -5.8 | 0.4
O=C1CCC(c2ccccc2)(c2ccccc2)CC1 | -6.5 | -0.2 | -3.8 | -1.6 | 18.0 | -2.4 | -0.7 | -3.0
Cc1[nH]c(=O)[nH]c(=O)c1S(=O)(=O)N1CCCC(C(=O)NCCc2ccc(Cl)cc2)C1 (configuration not stated) | -0.7 | -2.8 | -5.2 | -5.2 | 11.6 | 2.7 | 2.2 | -1.0
O=C(CS(=O)(=O)c1cn(Cc2ccc(Cl)cc2)c2ccccc12)N1CCCC1 | 0.4 | 5.5 | -1.3 | 0.1 | -10.9 | 0.3 | -3.1 | -3.1
CCOC(=O)N1CCN(c2ccc(S(=O)(=O)N3CCC(C)CC3)cc2[N+](=O)[O-])CC1 | 8.6 | . | 16.2 | 0.5 | 3.1 | -2.7 | 0.1 | 2.7
CC(C)c1ccc(/C=C/c2[nH]c(=O)[nH]c(=O)c2[N+](=O)[O-])cc1 | -3.4 | -7.3 | 3.2 | 1.6 | 3.5 | 2.9 | -9.4 | 0.4
Cc1nc2ccc(NS(=O)(=O)c3ccc(Br)cc3)cc2s1 | 4.6 | . | -1.4 | -4.4 | -36.5 | -0.6 | -100.5 | -2.7
O=C(CC12CC3CC(CC(C3)C1)C2)Nc1nncs1 | 2.9 | 2.7 | -5.8 | -6.0 | -2.5 | -5.7 | 5.8 | -0.3
CSc1ccc(/C=N/N(C)S(=O)(=O)c2ccc(C)cc2)cc1 | 4.7 | -2.2 | 4.4 | 0.8 | -31.8 | -5.2 | -4.9 | -2.8
